Rango dissoc inh – prevents RanGTP from dissociating the Rango-importin beta complex | O95149+P62826 | hit rate 0.071% among 340,000 | AID 540253 | Potency, µM (series often up to 46.1 µM), for inactives: at the top dose activity change, negative = inhibition | Biochemical FRET Rango-importin beta, RanGTP-induced dissociation; active means falling FRET ratio curve, often poorly fitted, with flat reads before Ran was added; inconclusive means other falling curves, or compound fluorescence or quenching; inactive means flat or rising ratio curve;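 also: potency is read from the fitted curve at half-maximal effect; % of control where 0% means no effect; nearly all actives have a fitted effect of over 45% in size; -100% = wells without RanGTP and RCC1; the record marks most hits as doubtful in a second field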
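Two FRET readings bracket the reaction: one 5 min after compound meets Rango–importin beta, another 45 min after RanGTP-RCC1 (0.6 uM Ran, 0.2 uM RCC1, 2 mM GTP) is added. Only the second defines inhibition.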
Rango-impB inh – Rango-importin beta binding inhibition; Q14974; Rango CFP/YFP FRET sensor + importin beta, 45 min; Potency, µM (series often up to 92.2 µM), for the others: top-dose inhibition of complex formation; hit rate 0.031% among 340,000; AID 540263; active = rising FRET ratio curve, often small or poorly fitted; inconclusive = mostly compound fluorescence or quenching in the first reads; inactive = flat curves in all reads;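 also: potency is read from the fitted curve at half-maximal effect; 0% = DMSO wells and 100% = buffer wells lacking importin beta; nearly all actives have a fitted effect of over 15% in size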
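Inhibition scored from the CFP 486 nm/YFP 530 nm FRET ratio 45 min after adding 0.125 microM importin beta to 50 nM Rango biosensor preincubated 5 min with compound (room temperature, PBS with DTT, Tween-20, BSA). No-importin wells as positive control.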
miR-21 FLuc – raises the signal of a miR-21 reporter | HeLa miR-21 FLuc reporter, luciferase, 48 h | Potency, µM (titrated, usually from 38.3 µM), for inactives: at the highest dose reporter change, positive = more light | 340,000 tested, under 10 active | AID 2288; active = well fitted rising curve with a large enough effect; inconclusive = small, poorly fitted or top-dose-only effect; inactive = no such curve, though single readings can be large or run the other way;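 also: % of control where 0% means no effect; miR-21 action dims this reporter so a rising signal means less miR-21 action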
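HeLa cells endogenously expressing miR-21, stably carrying CMV-driven firefly luciferase with a downstream miR-21 binding site, 2000 cells/well. Titrations up to approximately 40 uM, 48 hours; luciferase luminescence read.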
GLA inh pH 4.5 – inhibitors of human alpha-galactosidase A at pH 4.5; purified enzyme, 4-MU-alpha-Gal fluorescence, pH 4.5; 230,000 tested, under 10 active; P06280; AID 1467; activity change, negative = inhibition, % at 105 µM; inconclusive = small, poorly fitted or top-dose-only inhibition, or a rising curve; inactive = flat fitted curve, though single readings scatter; no compound was filed as active;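 also: 0% = full activity with enzyme and -100% = basal without enzyme; dose as in the result columns while the protocol names 77 µM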
Target sequence (P06280 whole entry, looked up): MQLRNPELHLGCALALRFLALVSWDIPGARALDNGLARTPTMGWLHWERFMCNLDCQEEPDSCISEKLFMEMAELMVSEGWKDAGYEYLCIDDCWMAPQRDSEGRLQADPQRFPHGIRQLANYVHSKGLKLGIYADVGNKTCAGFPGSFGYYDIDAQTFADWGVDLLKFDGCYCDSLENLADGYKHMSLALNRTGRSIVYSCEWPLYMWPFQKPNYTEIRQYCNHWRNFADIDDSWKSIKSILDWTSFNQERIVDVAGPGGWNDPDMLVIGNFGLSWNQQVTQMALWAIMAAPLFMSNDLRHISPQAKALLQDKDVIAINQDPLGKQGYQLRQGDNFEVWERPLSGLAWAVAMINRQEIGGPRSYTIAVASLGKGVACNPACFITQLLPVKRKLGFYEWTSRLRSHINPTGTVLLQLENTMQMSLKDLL
* marks the source's active call; other numbers are inactive results; u = inconclusive; x = no result given; & = joins results of further samples; [ ] = another dose, or the depositor's remark.

#	Compound	Rango dissoc inh	Rango-impB inh
1	COc1ccc(Cl)cc1NC(=O)c1cccc([N+](=O)[O-])c1O	26%	2.5%
2	Cc1ccccc1-n1c(SCC(=O)c2cc(C)n(C)c2C)nnc1-c1cccnc1	3%	-3.5%
3	CCC(=O)Nc1ncc2c(n1)CC(c1ccco1)CC2=O (configuration not stated)	-7%	-2.6%
4	Cc1cc(C)cc(C(=O)NC2C(=O)N3C(C(=O)O)=C(CSc4nnc(C)s4)CSC23)c1 (configuration not stated)	-20%	u
5	CCCCCCCCCCCC1N=C(N)NC(CCCO)=C1C(=O)OC (configuration not stated)	-4%	1.5%
6	CC(C)(C)c1ccc(/C=C/C(=O)O)s1	13%	3.3%
7	Nc1ncncc1-c1ccc(Cl)cc1	-9%	0.0%
8	COc1ccc(/C(O)=C2/C(=O)C(=O)N(CCCN(C)C)C2c2cccnc2)cc1 (configuration not stated)	x	x
9	CC(C)Oc1cccc(C(=O)NC(=S)N2CCN(c3ccc(C(F)(F)F)cc3[N+](=O)[O-])CC2)c1	0%	-1.5%
10	Cc1cc(=O)oc2cc(OC(=O)c3ccco3)ccc12	-28%	-5.3%
11	CC(C)(C)c1cc(C(=O)Nc2ccc(F)cc2)n(Cc2ccc(F)cc2)n1	18%	-3.8%
12	O=C(c1ccc(Cl)cc1)C1CCN(C(=S)Nc2ccccc2)CC1	1%	-0.8%

#	miR-21 FLuc	GLA inh pH 4.5
1	x	x
2	17%	-3
3	-9%	0
4	-3%	6[21.1 µM]
5	x	x
6	-12%	4
7	-12%	-4
8	-1%	5
9	9%	-2
10	0%	3
11	27%	-5
12	x	x

Profiles, looked up by structure:
`CCC(=O)Nc1ncc2c(n1)CC(c1ccco1)CC2=O` (configuration not stated) as listed: Rango dissoc inh: -7%; Rango-impB inh: -2.6%; miR-21 FLuc: -9%; GLA inh pH 4.5: 0
`COc1ccc(Cl)cc1NC(=O)c1cccc([N+](=O)[O-])c1O` as listed: Rango dissoc inh: 26%; Rango-impB inh: 2.5%; miR-21 FLuc: x; GLA inh pH 4.5: x

Going on with the list:
#	Compound	Rango dissoc inh	Rango-impB inh
13	COc1ccc(-c2noc(N3CCC(C(=O)N4CCN(c5ccccn5)CC4)CC3)n2)cc1	23%	-2.1%
14	Cc1ccc2c(c1)C(N1CCCC1=O)CC(c1ccco1)N2 (configuration not stated)	-28%	u
15	CCOc1ccccc1NC(=O)CCNS(=O)(=O)c1cccc2nonc12	6%	-2.9%
16	O=C(Nc1ccccc1C(=O)N1CCOCC1)c1noc2c1CCCC2	-16%	-4.2%
17	CC(C)CNC(=O)CC(=O)N/N=C/c1ccc(Br)cc1	0%	-1.1%
18	O=C1CC(NNC(=O)c2ccc(Br)cc2)C(=O)N1 (configuration not stated)	-2%	-0.4%
19	O=C1CN(C(=O)COc2ccc([N+](=O)[O-])cc2Cl)c2ccccc2N1	1%	-0.3%
20	O=C(c1cc(-c2ccncc2)nc2ccccc12)N1CCN(S(=O)(=O)/C=C/c2ccccc2)CC1	1%	-1.6%
21	O=C(/C=C/c1ccccc1)NC(NC(=S)Nc1ccc(Cl)cc1)C(Cl)(Cl)Cl (configuration not stated)	-14%	2.5%
22	CCC1=NN(C(=O)CCc2ccc3c(c2)OCO3)C(O)(C(F)(F)F)C1 (configuration not stated)	-6%	-0.2%
23	C=C1c2cccc(C(F)(F)F)c2O[C@H](C(=O)OCC)[C@H]1OC	-12%	u
24	COc1ccc(N2C(=O)C(CC(N)=O)N(NC(=O)c3cccc(OC)c3)C2=S)cc1 (configuration not stated)	10%	0.0%

#	miR-21 FLuc	GLA inh pH 4.5
13	u	-15
14	-35%	9
15	-2%&3%	x
16	2%	0
17	19%	-8
18	-1%	-19
19	x	x
20	10%	7
21	u	3
22	-8%	0
23	x	x
24	-22%	-7

Later entries.
#	Compound	Rango dissoc inh	Rango-impB inh
25	CCOC(=O)C1(CCc2ccccc2)CCN(C(=O)c2cnc(C)cn2)CC1	-6%	-0.3%
26	COc1cc(C(C(=O)NCc2ccccc2)N(C(=O)c2snc(C(N)=O)c2N)C2CCCC2)cc(OC)c1OC (configuration not stated)	u	-1.8%
27	COc1ccc(C(CCN2CCOCC2)c2c(OC)cc(OC)c3c(C)cc(=O)oc23)cc1 (configuration not stated)	-1%	0.5%
28	Cc1cc(C)cc(NC(=O)Nc2cccnc2)c1	-3%	0.7%
29	O=C(Cc1ccc([N+](=O)[O-])cc1)c1ccccc1	-2%	2.5%
30	O=C1CCCc2ccccc2N1Cc1cccc(Cl)c1	-3%	1.5%
31	CC(=O)Nc1sc2c(c1C#N)CCC(C)C2 (configuration not stated)	1%	4.2%
32	Nn1c(SCC(=O)Nc2ccc3c(c2)OCO3)nnc1-c1ccncc1	10%	1.8%
33	CN(CC(=O)Nc1cccc2c1CCCC2)S(=O)(=O)c1ccccc1	-6%	2.2%
34	O=S(=O)(Nc1ccc2c(c1)CCC2)c1cccs1	-7%	u
35	O=C(NC1CCCCC1)N1CCCC(c2nc(-c3ccc(S(=O)(=O)N4CCCC4)cc3)no2)C1 (configuration not stated)	1%	3.2%
36	C[C@@]12C(=O)N(CC3CCCO3)CC(=O)N1[C@H]1c3ccccc3OC[C@@H]1[C@@H]2c1ccccc1 (some centres not stated)	3%	1.7%

#	miR-21 FLuc	GLA inh pH 4.5
25	-30%	-4
26	-12%	x
27	7%	-5
28	-26%	x
29	x	x
30	0%	-18
31	-21%	5
32	-4%	14
33	-5%	0
34	-24%	3
35	-2%	5
36	x	x

Continued.
#	Compound	Rango dissoc inh	Rango-impB inh
37	S=C(NCCN1CCOCC1)Nc1ccc(Cl)c(Cl)c1	1%	-0.6%
38	CCOC(=O)c1cnn(CC2CCCCC2)c1N	1%	-1.2%
39	O=C(CC12CC3CC(CC(C3)C1)C2)N/N=C/c1ccncc1	-6%	-1.4%
40	Cc1ccc(S(=O)(=O)CNC(=O)c2ccccc2)cc1	5%	1.1%
41	Cc1ccc(NC(=O)c2c(C)noc2C)cc1	-13%	3.7%
42	CCOc1ccccc1NC(=O)c1cc(S(=O)(=O)NCc2ccco2)ccc1F	1%	9.8%
43	COCCn1c(Cc2ccccc2)nnc1SCC(=O)Nc1oc(C)c2c(C)n[nH]c(=O)c12	-13%	0.0%
44	Cc1ccc(CNC(=O)c2ccc([N+](=O)[O-])o2)cc1	12%	3.0%
45	CC(C)(C)OC(=O)C[C@H]1C/C=C\C[C@@H](CC(=O)NCCO)C(=O)N2CCC[C@H]2COC1=O	0%	1.3%
46	COn1c(-c2ccccc2)c(C=O)c2ccccc21	-3%	-2.8%
47	COc1ccc(NC(=O)N(CCCN2CCOCC2)Cc2cccnc2)c(OC)c1	8%	-2.5%
48	O=C(CSc1ccc(-c2ccccn2)nn1)NC1CCCCC1	9%	-0.5%

#	miR-21 FLuc	GLA inh pH 4.5
37	-10%	0
38	-32%	7
39	-22%	-2
40	-1%	0
41	-1%	2
42	6%	x
43	x	x
44	24%	5
45	x	x
46	-8%	x
47	x	x
48	-9%	4

Molecules from the list above that have two or more sulfur atoms:
#	Compound	Rango dissoc inh	Rango-impB inh
4	Cc1cc(C)cc(C(=O)NC2C(=O)N3C(C(=O)O)=C(CSc4nnc(C)s4)CSC23)c1 (configuration not stated)	-20%	u
34	O=S(=O)(Nc1ccc2c(c1)CCC2)c1cccs1	-7%	u

#	miR-21 FLuc	GLA inh pH 4.5
4	-3%	6[21.1 µM]
34	-24%	3

Further entries follow:
#	Compound	Rango dissoc inh	Rango-impB inh
49	NNC(=O)C1CCCN1S(=O)(=O)c1ccc(Cl)cc1 (configuration not stated)	2%	-2.5%
50	CC(C)OCCCn1c(=S)[nH]c2cc3c(cc2c1=O)OCO3	3%	1.9%
51	COC(=O)c1ccc(N2CCN(CC(=O)c3ccc(-c4ccccc4)cc3)CC2)c([N+](=O)[O-])c1	7%	-3.2%
52	COC(=O)c1sccc1NC(=O)c1cccc(F)c1	-6%	2.1%
53	CCCCn1c(SCC(=O)c2ccc3c(c2)OCCO3)nnc1-c1ccco1	0%	0.2%
54	CC1=NN(C(N)=S)C(=O)C1N=Nc1ccccc1 (configuration not stated)	8%	-2.9%
55	O=C(NC1CCC(=O)N(CCSc2ccccc2)CC1)OCc1ccccc1 (configuration not stated)	2%	-0.1%
56	O=C(/C=C/c1cccs1)NC(=S)NNC(=O)Cc1cccs1	16%	-0.5%
57	O=C(NCCCn1ccnc1)c1cc(-c2ccncc2)nc2ccccc12	1%	0.1%
58	CCOC(=O)N1CCN(Cc2nc(-c3ccccc3)no2)CC1	2%	-5.4%
59	Cc1ccc(S(=O)(=O)N2CC(O)CC2C(=O)OCC(=O)c2ccccc2Cl)cc1C (configuration not stated)	-13%	-1.0%
60	O=C(Nc1ccccc1)c1cc2n(n1)C(C(F)(F)F)CC(C1CC1)N2 (configuration not stated)	25%	-0.4%

#	miR-21 FLuc	GLA inh pH 4.5
49	-5%	5
50	-8%	6
51	-21%	-1
52	x	x
53	-11%	3
54	-8%	-11
55	2%	x
56	-12%	6
57	-1%	1
58	-33%	-16
59	-16%	-28
60	-70%	7

Following part.
#	Compound	Rango dissoc inh	Rango-impB inh
61	CCOc1ccccc1CNC(=O)C1CCN(C(=O)c2sccc2-n2cccc2)CC1	0%	-4.1%
62	CCCc1[nH]nc2c1C(c1ccsc1)C(C#N)=C(N)O2 (configuration not stated)	6%	0.1%
63	NC(=O)C1CC2(C1)CC(C(N)=O)C2 (configuration not stated)	-2%	-2.0%
64	CCCN1C(=O)CC(C(=O)OC)=C1C	14%	-0.2%
65	COc1ccc(N(CC(=O)Nc2ccc(F)c(F)c2)S(=O)(=O)c2c(C)n[nH]c2C)cc1	-6%	-13%
66	C=CCNC(=O)c1nn2cccnc2c1Cl	-4%	-0.7%
67	CC(C)(C)C(=O)Nc1ccccc1C(=O)Nc1ccccn1	-12%	-0.3%
68	COc1ccc(/C=C2\SC(=O)N(CC(=O)Nc3ccc(O)cc3)C2=O)cc1OC	-16%	-1.6%
69	CCOC(=O)c1oc2cc(O)c(CC)cc2c(=O)c1-c1cscn1	8%	-3.7%
70	O=C(NCCNS(=O)(=O)c1cccc(C(F)(F)F)c1)c1cc(OCC(F)(F)F)ccc1OCC(F)(F)F	12%	0.6%
71	CCn1c(CNc2ccc(Cl)cc2)nnc1SCCN1CCCCC1	31%	-1.7%
72	CC(C)OCCCNC(=O)c1cn(C)c2ccc(S(=O)(=O)N(C)C3CCCCC3)cc2c1=O	5%	-1.2%

#	miR-21 FLuc	GLA inh pH 4.5
61	0%	-1
62	-1%	4
63	x	x
64	0%	3
65	0%	x
66	-2%	-6
67	-3%	-15
68	0%	x
69	-9%	-2
70	-7%	-16
71	-8%	1
72	1%&0%	x

Further records follow:
#	Compound	Rango dissoc inh	Rango-impB inh
73	COc1ccc(NC(=O)CCN2CCN(S(=O)(=O)c3ccc(C(C)C)cc3)CC2)cc1	0%	-0.9%
74	COc1ccc(NC(=O)N2CCOCC2)cc1	0%	1.2%
75	COc1ccc(-c2nnc(SCc3csc(N)n3)n2C)cc1	0%	-1.9%
76	Cc1nc(NC(=O)c2csc3ccccc23)sc1C	-4%	-2.0%
77	COc1cccc(N(CC(=O)N2CCN(C)CC2)S(=O)(=O)c2ccc(C)cc2)c1	-7%	1.2%
78	O=C(Cn1c(NCCO)nc2ccccc21)c1ccc(Cl)cc1	13%	1.7%
79	COc1cccc(C(=O)N(Cc2nc(-c3cccc(C)c3)no2)C(C)C)c1OC	0%	-1.2%
80	COC(=O)c1ccc(Cn2nnc3ccccc32)cc1	-1%	-0.5%
81	CC(C)Oc1ccc(/C=N/NC(=O)c2nnn(-c3nonc3N)c2CN(C)C2CCCCC2)cc1	-15%	-2.8%
82	Clc1ccccc1Cn1nc(-c2ccccc2)nc1-c1ccccc1	1%	5.1%

#	miR-21 FLuc	GLA inh pH 4.5
73	7%	-9
74	-15%	x
75	-8%	1
76	-12%	4
77	-7%	1
78	-4%	10
79	8%	-15
80	-10%	7
81	1%	x
82	-32%	-8

Screening data: PubChem, National Center for Advancing Translational Sciences (NCATS)

The list is partial (hit frequency here may not be typical).
